KCNQ2 inh = KCNQ2 potassium channel inhibitors, primary screen, cell-based, CHO-K1, FluxOR thallium flux, B-score (AID 2156) | 20 min; hits give low values; only compounds with negative scores are shown here; some inactives read as strong as hits | B-score at 10 µM | hit rate 1.1% among 310,000;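 active = fluorescence ratio B-score at most minus 3 library SDs, with starting brightness B-score within 2 library SDs, cut at about -5.5 in these data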
Target sequence (O88943 whole entry, looked up): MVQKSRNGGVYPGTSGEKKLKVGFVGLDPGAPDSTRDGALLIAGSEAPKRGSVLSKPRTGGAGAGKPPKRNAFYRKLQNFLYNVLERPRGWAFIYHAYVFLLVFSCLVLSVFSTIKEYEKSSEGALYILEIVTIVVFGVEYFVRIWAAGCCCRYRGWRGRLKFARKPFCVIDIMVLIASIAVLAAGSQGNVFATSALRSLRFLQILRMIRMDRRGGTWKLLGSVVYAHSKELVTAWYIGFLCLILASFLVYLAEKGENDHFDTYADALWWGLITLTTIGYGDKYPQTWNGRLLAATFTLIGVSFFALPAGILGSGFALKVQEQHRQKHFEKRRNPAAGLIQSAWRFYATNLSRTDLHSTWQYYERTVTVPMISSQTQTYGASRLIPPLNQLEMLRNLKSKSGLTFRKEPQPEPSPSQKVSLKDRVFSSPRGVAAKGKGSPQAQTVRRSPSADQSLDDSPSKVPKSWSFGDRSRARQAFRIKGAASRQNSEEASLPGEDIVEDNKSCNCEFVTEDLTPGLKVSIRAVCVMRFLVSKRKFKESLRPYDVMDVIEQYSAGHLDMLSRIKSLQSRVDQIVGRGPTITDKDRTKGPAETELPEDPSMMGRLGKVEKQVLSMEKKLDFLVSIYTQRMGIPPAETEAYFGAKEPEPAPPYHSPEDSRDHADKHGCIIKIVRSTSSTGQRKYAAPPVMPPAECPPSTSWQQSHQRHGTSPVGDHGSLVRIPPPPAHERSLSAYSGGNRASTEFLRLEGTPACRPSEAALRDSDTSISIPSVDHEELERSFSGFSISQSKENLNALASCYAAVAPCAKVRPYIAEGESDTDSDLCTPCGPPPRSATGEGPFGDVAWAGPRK
KCNQ2 inh baseline = also measured in KCNQ2 inh; calls as there; B-score; measured here: initial fluorescence intensity artifact check;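 brightness before thallium and not channel activity; 0 = typical well and far values either way flag optical interference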
Numbers without * were called inactive; i = inactive. These rows are one share of the data. The share of hits here may be higher or lower than overall.

cpd	Compound	KCNQ2 inh	KCNQ2 inh baseline
1	CCC(=O)NCC(c1cccs1)S(=O)(=O)c1ccc(C)cc1 (stereo not given)	i	0.3
2	CCN1CCN(S(=O)(=O)c2ccc(Cl)c(C(=O)Nc3nnc(CC(C)C)s3)c2)CC1	i	-0.03
3	COC(=O)CN1C(=S)N(c2ccc(OC)cc2)C(=O)/C1=C/c1ccc(OC)cc1	i	-0.32
4	C=CCNC(=O)c1onc(CSc2cccc3ccccc23)c1C(=O)O	i	-0.35
5	Cn1c(=O)[nH]c(=O)c2c1nc(CN1CCOCC1)n2CCc1ccccc1	i	0.45
6	Cc1sc(NC(=O)CSc2nnc(CCNC(=O)c3cccs3)n2C)nc1-c1ccccc1	i	0.51
7	Cn1c(=O)n(C)c2cc([N+](=O)[O-])c(N3CCN(S(=O)(=O)c4ccc5ccccc5c4)CC3)cc21	i	1.15
8	Cc1ccc2c(c1)C(c1ccccc1)N(C(=O)c1cc3ccccc3oc1=O)CC(=O)N2 (stereo not given)	i	1.18
9	c1coc(-c2nnc(-c3ccc4c(c3)OCO4)o2)c1	i	-0.99
10	O=C(C1CCCC1)N1CCCC(Nc2ccc(F)cc2)C1 (stereo not given)	i	2.37
11	Cc1cc(C)c(C)c(S(=O)(=O)N2CCN(Cc3nc4ccccc4[nH]3)CC2)c1C	i	-1.39
12	COc1ccc(OC)c(Nc2ncnc3ccccc23)c1	i	-0.51
13	O=C(O)c1ccccc1-c1nc2ccccc2c(=O)[nH]1	i	1.4
14	Cc1cccc(N(CC(=O)NCCc2ccccc2)C(=O)c2csnn2)c1	i	-1.59
15	OCCN1CCN(c2cc(-c3ccccc3)c3ccccc3n2)CC1	i	0.49
16	CC(C)(C)NC(=O)Cn1c(SCC(N)=O)nc2ccccc21	i	1.42
17	CC(C)c1ccccc1NC(=O)COC(=O)c1cccnc1	i	-0.05
18	Cc1ccc(S(=O)(=O)n2nc(-c3cccnc3)nc2N)cc1	i	0.17
19	COc1ccc(NS(=O)(=O)c2cccc(C(=O)N3CCN(Cc4cc(OC)ccc4OC)CC3)c2)cc1	i	1.5
20	COc1ccc(-c2nnc(SCC(=O)c3cccs3)o2)cc1	i	0.88
21	COc1ccc([N+](=O)[O-])cc1/C=N/Nc1nc(N2CCCCC2)nc(N2CCCCC2)n1	i	-1.37
22	N#Cc1cccc(C(=O)N(CCc2ccccc2)Cc2cccs2)c1	i	1.13
23	Cc1ccc(CSc2sc(C(=O)c3ccccc3)c(N)c2C#N)cc1	i	-0.59
24	O=S(=O)(Nc1cccnc1)c1ccc2c(c1)OCCO2	i	1.77

Copied from above: entries 9 to 12
cpd	Compound	KCNQ2 inh	KCNQ2 inh baseline
9	c1coc(-c2nnc(-c3ccc4c(c3)OCO4)o2)c1	i	-0.99
10	O=C(C1CCCC1)N1CCCC(Nc2ccc(F)cc2)C1 (stereo not given)	i	2.37
11	Cc1cc(C)c(C)c(S(=O)(=O)N2CCN(Cc3nc4ccccc4[nH]3)CC2)c1C	i	-1.39
12	COc1ccc(OC)c(Nc2ncnc3ccccc23)c1	i	-0.51

The list goes on.
cpd	Compound	KCNQ2 inh	KCNQ2 inh baseline
25	Cc1ccc(OCCOCCn2cnc3ccccc3c2=O)c([N+](=O)[O-])c1	i	-0.21
26	CC1(C)CC2(CCCN3C(=O)CSC32)CCS1 (stereo not given)	i	-0.56
27	CC(=O)c1c(C)nc(-c2ccc(Cl)cc2)nc1N=CN(C)C	i	-1.15
28	Cc1ccccc1NC(=O)CC1SC(=O)N(c2ccccc2)C1=O (stereo not given)	i	-1.41
29	Cc1nn(Cc2c(F)c(F)c(F)c(F)c2F)c(C)c1NC(=O)c1c([N+](=O)[O-])cnn1C	i	-0.93
30	Cc1cc(=O)n(-c2ccc(Cl)cc2)c(=O)[nH]1	i	-0.31
31	COc1ccc(S(=O)(=O)N2CCC(C(=O)NCc3cccnc3)CC2)cc1Cl	i	0.16
32	NC(=O)c1c(NC(=O)C(=O)N2CCOCC2)sc2c1CCC2	i	0.59
33	O=C(CCCCO)c1ccc(O)c(Cl)c1	i	-0.07
34	Cc1cc(Cl)c2ccc(Cl)cc2n1	i	-2.02
35	O=C(Nc1ccc(Cl)cc1)c1ccc2ncsc2c1	i	0.44
36	O=C(c1ccc(COc2ccc(Cl)cc2)o1)N1CCN(Cc2ccc3c(c2)OCO3)CC1	i	-0.01
37	O=C(CSc1nc2ccc(Nc3nc(N4CCCC4)nc(N4CCCC4)n3)cc2s1)NCc1ccco1	i	-0.53
38	CCn1cc(Br)c(C(=O)Nc2ccc(F)cc2F)n1	i	0.93
39	CN(CCOc1ccccc1)C(=O)C1CCC(=O)N(CCc2ccc(Cl)cc2)C1 (stereo not given)	-7.8*	0.1*
40	Cc1ccnc(NS(=O)(=O)c2ccc(NC(=O)CCc3ccccc3)cc2)n1	i	0.72
41	Clc1ccc(-[n+]2c(-c3cccc(Br)c3)[nH]c3nc4ccccc4nc32)cc1	i	0.08
42	COc1ccc(CS(=O)(=O)CC(C)(O)c2ccccc2Cl)cc1 (stereo not given)	i	-0.25
43	Cc1nnc(-n2ncc(C#N)c2N)c2nn(-c3cccc(Cl)c3)c(C)c12	i	1.73
44	Cc1ccc(-n2ncc3c2CCCC3NC(=O)CCc2c(C)noc2C)cc1C (stereo not given)	i	-0.13
45	O=C(C1=C[C@H](c2ccc(Br)cc2)C[C@H](OCCCCO)O1)N1CCN(Cc2ccc3c(c2)OCO3)CC1	i	-1.14
46	CCC(C)(C)NC(=O)C(c1ccc(OC)cc1)N(C(=O)CCC(=O)Nc1cc(C)on1)c1cc(OC)ccc1OC (stereo not given)	i	-0.88
47	Cc1cccc(NC(=O)CN2C(=O)N/C(=C\c3ccc(N4CCOCC4)cc3)C2=O)c1	i	-0.06
48	CC(C)CNC1CCS(=O)(=O)C1 (stereo not given)	i	3.82
49	OC(CN1CCCC1)Cn1ccc2ccccc21 (stereo not given)	i	0.81
50	O=S(=O)(Nc1ccccc1Cl)c1ccc(-c2ccccn2)s1	i	0.54
51	CCCC(=O)OCCNc1cc(SCc2ccco2)c2nonc2c1[N+](=O)[O-]	i	-1.65
52	CCc1nnc(NC(=O)CSCc2cc(=O)n3nc(C(C)C)sc3n2)s1	i	0.09
53	O=S(=O)(Cc1ccc(Cl)cc1)N1CCN(Cc2ccccc2)CC1	i	0.06
54	CCc1ccc(-n2c(C)n[nH]c2=S)cc1	i	1.31
55	CCOC(=O)Cc1csc(NC(=O)CSc2nnnn2-c2ccc(C)c(C)c2)n1	i	0.57
56	COc1ccc(NC(=O)CCNC(=O)c2ccco2)cc1OC	i	1.71
57	CCCn1c(=O)[nH]c(=O)c2c1nc(-c1ccc3c(c1)OCCO3)n2CCN1CCOCC1	i	0.04
58	Fc1ccccc1COc1ccccc1/C=N/Nc1nc(N2CCCC2)nc(N2CCCC2)n1	i	0.43
59	Cc1cc(C(=O)N2CCc3ccccc32)c2ccccc2n1	i	-0.44
60	COc1ccc(N2CCN(c3oc(COc4ccc(Cl)cc4)nc3C#N)CC2)cc1	i	-0.2
61	Cc1ccc(C(=O)NC(O)C(Cl)Cl)cc1 (stereo not given)	i	0.06
62	CCC1(CC)NC(=S)N(Nc2ccccc2)C1=O	i	-1.27
63	C=CCN(C(=O)Cn1ncc2c1-c1cc(C)ccc1OC2)c1ccccc1	i	0.08
64	CC(=O)c1cccc(NC(=S)N2CCN(c3ccccn3)CC2)c1	i	-0.11
65	O=C(c1ccc(F)cc1)C1CCN(S(=O)(=O)c2ccccc2)CC1	i	0.28
66	CCCNC(=O)N(CCOC)CC1CCCN(C2Cc3ccccc3C2)C1 (stereo not given)	i	-1.57
67	Oc1ccc(Nc2nc(NCC3CCCO3)c3ccccc3n2)cc1 (stereo not given)	i	-1.1
68	O=C(Nc1ccc2c(c1)OCCO2)C1CCN(C(=O)c2ccc(Cl)cc2)CC1	i	1.48
69	Cn1c(=O)n(C)c2cc(NS(=O)(=O)c3ccc(F)cc3)ccc21	i	1.63
70	COCCCN1C(=O)C2C(C(=O)Nc3cc(C)cc(C)c3)C3C=CC2(O3)C1C(=O)NC1CCCCC1 (stereo not given)	i	0.6
71	CC(C)(C)OC(=O)N1CCC[C@H]1c1nnc(SCC(=O)Nc2ccc(Br)cc2)o1	i	1.4
72	Cc1nc2ccc(NS(=O)(=O)c3ccc(F)cc3)cc2s1	i	1.83
73	Cc1ccc(-n2sc3ccccc3c2=O)cc1	i	0.68
74	Cc1ccc(Nc2ccc(C(F)(F)F)cc2[N+](=O)[O-])cc1	i	0.57
75	COc1cccc(OCCCCSc2ncccn2)c1	i	0.63
76	CC(=O)N1CC(c2ccccc2)C(c2ccc(Cl)cc2)=N1 (stereo not given)	i	0.93
77	Cc1onc(-c2ccc3c(c2)OCO3)c1-c1ccc2[nH]ccc2c1	-7.89*	-1.3*
78	COc1ccc(C2C(C(C)=O)=C(C)N=c3s/c(=C\c4ccco4)c(=O)n32)c(OC)c1 (stereo not given)	i	0.97
79	Cc1onc(-c2ccccc2)c1C(=O)N1CCN(c2ccccn2)CC1	i	0.89
80	CCOC(=O)Cc1csc(NC(=O)CSc2cc(Cl)ccc2Cl)n1	i	0.16
81	COc1ccc2c(/C=N/Nc3ccc(C(=O)O)cc3)c[nH]c2c1	i	0.47
82	CC(C)(CO)NS(=O)(=O)c1ccc2c(c1)oc(=O)c1cc(S(=O)(=O)NC(C)(C)CO)ccc12	i	-0.14
83	Cc1cc(C(=O)COC(=O)CC2Sc3ccccc3NC2=O)c(C)n1-c1ccccc1 (stereo not given)	i	-0.59
84	COc1ccc(/C=N/NC(=O)c2cc(-c3ccc4c(c3)OCO4)n[nH]2)cc1OC	i	0.19

New compounds follow.
cpd	Compound	KCNQ2 inh	KCNQ2 inh baseline
85	CC1(C)Cc2c(c(-c3ccco3)nc3sc4c(NCCO)ncnc4c23)CO1	i	-1.54
86	Cn1cccc1Cc1nnc(SCC(=O)NC2CCCCC2)n1CCc1ccccc1	i	-0.57
87	CCC(C)(C)n1nnnc1C(c1ccc(C)cc1)N1CCC(C)CC1 (stereo not given)	i	2.81
88	CCOC(=O)CSC1=N/C(=C\c2cc(OC)c(OC)c(OC)c2)C(=O)N1C	i	-1
89	Fc1ccccc1N1CCN(C(c2ccccn2)c2nnnn2C2CCCCC2)CC1 (stereo not given)	i	1.21
90	CCOC(=O)C1CCN(Cc2cc(=O)oc3cc(C)c(Cl)cc23)CC1	i	-0.36
91	COC(=O)C(C)N(C(=O)c1cccc(Cl)c1)c1c(C)cccc1C (stereo not given)	i	2.07
92	C/C(=C\C(=O)c1ccc(Br)cc1)NCc1ccccc1	i	-0.33
93	CCCOc1ccc(/C(O)=C2/C(=O)C(=O)N(c3ccccn3)C2c2ccc(OC)cc2)cc1C (stereo not given)	i	-0.72
94	CSc1ccccc1NC(=O)CN(C)Cc1c(O)ccc2ccccc12	i	0.19
95	O=C(O)c1cccc(N2C(=O)/C(=C/c3ccc([N+](=O)[O-])cc3)C=C2c2ccccc2)c1	i	-0.02
96	CC(NC(=O)C1CCC(CNc2c(N3CCOCC3)c(=O)c2=O)CC1)c1ccccc1 (stereo not given)	i	2.42
97	CCn1cc([N+](=O)[O-])c(C(=O)N2N=C3/C(=C/c4cccs4)CCCC3C2c2cccs2)n1 (stereo not given)	i	1.7
98	Nc1ccc2oc(CCc3ccccc3)nc2c1	i	-0.74
99	CC1(C)Cc2c(sc3[nH]c(=O)n(CC(=O)NCC4CCCO4)c(=O)c23)CO1 (stereo not given)	i	3.05
100	CN1CCN(c2ccccc2NC(=O)Cc2cn(C)c3ccccc23)CC1	i	0.01
101	O=C(NCCCn1ccnc1)c1noc2c1CCCC2	i	1.47
102	COCCN1CCn2c(nc3cc([N+](=O)[O-])ccc32)C1	i	-0.36
103	O=C(COC(=O)Cc1cn2ccsc2n1)NCc1ccc2c(c1)OCO2	i	0.48
104	Cc1ccc(/C=N/NC(=O)c2cccnc2)o1	i	1.08
105	CCN(CC)S(=O)(=O)c1cc(NC(=O)CNc2c(C)n(C)n(-c3ccccc3)c2=O)ccc1C	i	-0.31
106	O=C(O)/C=C/C(=O)OC1CC2CCC1C2 (stereo not given)	i	0.58
107	Cc1cc2c(=O)n(C)c(SCC(=O)c3cc4ccccc4o3)nc2s1	i	1.49
108	CC(C)OC(=O)c1nnc(-c2ccccc2)nc1OC(C)C	i	0.58

A few values from above:
Entry of O=C(Nc1ccc(Cl)cc1)c1ccc2ncsc2c1 under KCNQ2 inh baseline: 0.44
Entry of CCN1CCN(S(=O)(=O)c2ccc(Cl)c(C(=O)Nc3nnc(CC(C)C)s3)c2)CC1 under KCNQ2 inh baseline: -0.03
Entry of Fc1ccccc1COc1ccccc1/C=N/Nc1nc(N2CCCC2)nc(N2CCCC2)n1 under KCNQ2 inh baseline: 0.43
Entry of Cc1cc2c(=O)n(C)c(SCC(=O)c3cc4ccccc4o3)nc2s1 under KCNQ2 inh baseline: 1.49

Later entries
cpd	Compound	KCNQ2 inh	KCNQ2 inh baseline
109	COc1cc(C2OC(c3cc(OC)c(OC)c(OC)c3)C(C)C2C)cc(OC)c1OC (stereo not given)	i	-0.59
110	Cc1ccc(C(=O)c2cc(C)sc2N)cc1	i	0.21
111	CCC(C)(C)n1nnnc1C(c1ccc(O)c(OC)c1)N1CCN(c2nc3ccccc3s2)CC1 (stereo not given)	i	0.28
112	Cc1ccc(S(=O)(=O)NCC2NCCc3ccccc32)cc1 (stereo not given)	i	-1.25
113	Cc1ccc(Sc2nnc(Cc3ccccc3)c3ccccc23)cc1	i	1.44
114	CCN(CCn1cccn1)C(=O)CCc1nnc(CCc2ccccc2OC)o1	i	-1.23
115	Cc1ccc(OCc2nc(-c3ccccn3)no2)c(Br)c1	i	-0.67
116	CCn1ccnc1CN(C)C(=O)CC1C(=O)NCCN1Cc1c(F)cccc1Cl (stereo not given)	i	-0.37
117	O=c1c2cc([N+](=O)[O-])ccc2nc2n1CCC2	i	-0.22
118	CNC(=O)CN(c1ccc(C23CC4CC(CC(C4)C2)C3)cc1)S(C)(=O)=O	i	-1.23
119	FC(F)Oc1ccc(/C=N/N2CCCCC2)c(OC(F)F)c1	i	-0.07
120	O=C(C[n+]1cc(Br)cc2ccccc21)c1ccccc1	i	-0.15
121	Nc1c(NCc2ccccc2)c(=O)c1=O	i	-1.03
